# CSC inhib = cancer stem cell inhibition; cancer stem cell-like cells viability, luminescence; inhibition, % at 7.5 µM; actives 1.1% (n = 300,000); AID 2717;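 active = mean at 75% or more and at least half the replicates too; tested in HMLE shEcad cells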;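 also: 0% = median of negative and 100% = median of positive control wells; the first replicate is given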
# UUG fidelity = yeast start codon fidelity modulation. activity score, % at 18.7 µM. S. cerevisiae UUG-firefly luciferase reporter, luminescence/redox ratio. actives 0.13% (n = 350,000). AID 602363;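 active = replicate mean at a twofold rise or more, about +100% in these data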;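 also: firefly luciferase made from a UUG start codon reports start codon fidelity; reporter light over untreated wells divided by growth signal over untreated wells; some hits fall short of that in this replicate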
# PABP FP inh = PABP-poly(A) binding inhibition | PABP-poly(A) RNA binding, fluorescence polarization | inhibition, % at 35 µM | actives 1% (n = 290,000);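 active = 50% or more with normal probe brightness, or confirmed in later tests; about a fifth of its hits are not listed in these tables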;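 also: calls also rest on retests at 20 µM and on dose response follow-up; controls were probe without protein and protein plus probe with vehicle; some compounds called inactive have numbers as strong as hits; many hits fall short of the cut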
# Target sequence (P11940 whole entry, looked up): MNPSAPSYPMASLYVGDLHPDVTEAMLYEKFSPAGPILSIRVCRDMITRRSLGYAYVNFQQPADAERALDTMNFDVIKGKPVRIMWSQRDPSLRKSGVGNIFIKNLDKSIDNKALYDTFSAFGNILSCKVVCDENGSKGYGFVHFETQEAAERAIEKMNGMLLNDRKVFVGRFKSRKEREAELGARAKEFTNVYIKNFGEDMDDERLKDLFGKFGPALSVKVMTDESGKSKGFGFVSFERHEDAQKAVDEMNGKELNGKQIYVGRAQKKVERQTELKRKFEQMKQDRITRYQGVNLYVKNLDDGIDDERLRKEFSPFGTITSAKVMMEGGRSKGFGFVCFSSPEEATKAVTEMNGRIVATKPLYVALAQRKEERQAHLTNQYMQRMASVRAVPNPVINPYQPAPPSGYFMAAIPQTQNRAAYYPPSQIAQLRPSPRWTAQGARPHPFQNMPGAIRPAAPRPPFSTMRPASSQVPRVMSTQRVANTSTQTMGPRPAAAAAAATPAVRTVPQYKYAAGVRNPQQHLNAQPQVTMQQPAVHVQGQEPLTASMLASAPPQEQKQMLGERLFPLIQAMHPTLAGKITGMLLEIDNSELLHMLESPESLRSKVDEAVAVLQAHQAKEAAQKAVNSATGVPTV
# MT1-MMP act inh = MT1-MMP (human) activation inhibition. HT1080 RFP-PRO-GFP cells, GFP/RFP ratio fluorescence, overnight; percent of plate control window, DMSO zero. actives 0.061% (n = 360,000). AID 651647. GFP/RFP ratio change, % at 20 µM;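 active = GFP/RFP ratio change of at least 30% with cell ATP level not reduced by more than half and red fluorescence within 50% of control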; also: strong numbers were not always called active
#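 Assay system – RFP-PRO-GFP reporter HT1080 cells · Compound dosing – single dose of 20 µM compound, 1% DMSO final · Incubation – overnight compound exposure at 37 °C · Measure – GFP/RFP fluorescence ratio · Benchmarks – DMSO wells and RFP-L50D-GFP cells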
# eIF4H inh = inhibitors of RNA binding by human eIF4H; actives 0.94% (n = 290,000); inhibition, % at 35 µM; Q15056; eIF4H fluorescence polarization binding assay;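 active = 50% or more with normal probe brightness, or confirmed in later tests; about a fifth of its hits are not listed in these tables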;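 also: calls also rest on retests at 20 µM and on dose response follow-up; 0% = protein and probe with vehicle and 100% = probe without protein; strong numbers were not always called active; many hits fall short of the cut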
# Rce1 inhib = inhibitors of yeast Ras-converting enzyme. calls only. AID 2563. yeast membranes, quenched prenylated peptide cleavage fluorescence. actives 0.27% (n = 290,000);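 active = fall in fluorescence gain of 50% or more versus controls, with final raw signal at or below 3038400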;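 also: plate controls were neutral control wells for no effect and wells lacking membranes for full effect; tested at 10 µM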
# Target sequence (Q03530 whole entry, looked up): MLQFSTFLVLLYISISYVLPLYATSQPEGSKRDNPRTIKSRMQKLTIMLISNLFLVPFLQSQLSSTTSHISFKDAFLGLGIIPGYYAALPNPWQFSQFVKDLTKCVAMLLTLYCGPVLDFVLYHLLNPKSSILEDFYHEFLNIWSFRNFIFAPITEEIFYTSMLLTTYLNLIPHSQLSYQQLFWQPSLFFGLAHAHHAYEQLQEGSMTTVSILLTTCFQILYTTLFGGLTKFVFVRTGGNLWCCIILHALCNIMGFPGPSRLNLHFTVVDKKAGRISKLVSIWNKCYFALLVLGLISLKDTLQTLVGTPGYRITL
# Env fusion inh = blocks HIV Env-driven cell-cell fusion. HeLa-JRFL Env/CEM21 cell fusion, luciferase. inhibition, % at 12.3 µM. actives 1.1% (n = 360,000). AID 651610;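 active = mean replicate inhibition score of at least 50 and every replicate individually at or above 50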;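 also: 0% = plate neutral controls and 100% = maraviroc near 300 nM; one replicate is shown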
# eIF4H inh retest = further read-out of eIF4H inh, marked with its call; inhibition, %; compound at 20 µM; confirmation average;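 mean of two retest wells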
# PABP FP inh retest = recorded beside PABP FP inh, whose call it bears; inhibition, %; compound at 20 µM; confirmation repeats;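 mean of two retest wells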
# MT1-MMP act inh RFP = further read-out of MT1-MMP act inh, marked with its call; RFP signal change, %; measured here: RFP expression control read;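 0 = vehicle wells; hits needed this value within 50% of zero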
# Numbers without * were called inactive; i = inactive; x = no result given; & = joins results of further samples.
SMILES,CSC inhib,UUG fidelity,PABP FP inh,MT1-MMP act inh,MT1-MMP act inh RFP,eIF4H inh,Rce1 inhib,Env fusion inh,others
CC1CCC(NC(=O)c2ccc3c(c2)OCO3)CC1 (stereo unspecified),-6,-59,2,1,0,-2,i,-26,
COC(CNC(=O)C1CCCN(S(=O)(=O)c2ccc3c(c2)oc(=O)n3C)C1)OC (stereo unspecified),-16,-11,6,3,1,-3,i,3,
COc1ccc(-c2csc(C(O)c3ccc(F)c(OC)c3)n2)cn1 (stereo unspecified),x,-4,x,6,-6,x,x,2,
Cc1cc(SCC(=O)c2ccccc2)nc(SCC(=O)c2ccccc2)n1,1,-13,-4,2,-10,-10,i,-2,
COC(=O)[C@H](C)NC(=O)NC1CCCc2ccccc21 (stereo partly specified),x,5,1,0,7,-1,i,x,
Nc1nnc(SCC(=O)Nc2ccc(F)c(Cl)c2)n1-c1ccccc1,8,-36,-12,1,0,-7,i,x,
O=c1oc2ccccc2cc1-c1ccccc1,-3,-20,-8,-4,0,-6,i,-38,
CNC(=O)c1cnc(-c2ccccc2)nc1-c1ccccc1,-13,-12,8,2,1,1,i,12,
Cc1cccc2c1cnn2C(=O)CCC(=O)NCc1ccc(F)cc1,x,-13,6,-3,-1,-2,i,-22,
COc1ccccc1NC(=O)C1CCN(C(=O)c2ccco2)CC1,-10,1,9,-1,3,10,i,-13,
O=C1c2ccccc2C(=O)N1OCc1ccccc1,1,-17,6,-1,5,-1,i,-14,
CCOC(=O)N1CCN(C(=O)Cn2nc(C)c3sc4ccccc4c3c2=O)CC1,-7,4,9,3,2,7,i,x,
Clc1ccc(C(c2ccccc2)N2CCN(c3ccccn3)CC2)cc1 (stereo unspecified),6,x,-2,-2,-8,-4,x,27,
CSc1nnc(CCCCCCCCc2nnc(SC)o2)o1,31,-11,-3,-2,-2,-7,i,15,
Cc1nonc1OCCNCc1c(C(=O)N(C)C)nc2ccc(Cl)cn12,-11,x,62*,-2,5,87*,i,2,eIF4H inh retest=94*;PABP FP inh retest=60*
Cc1ccc(C)c(Cn2nc(-c3cc(C)ccc3C)ccc2=O)c1,7,-16,2,0,-2,-1,i,13,
CC(Sc1cccc[n+]1[O-])C(=O)NC1CCCCC1C (stereo unspecified),-15,-44,x,0,1,x,x,x,
Cc1cc(-c2ccc(C(C)C)c(S(=O)(=O)N3CCN(c4ccccn4)CC3)c2)on1,56,-26,4,-4,-13,10,i,18,
O=C(NCc1cccnc1)/C(=C/c1ccccc1)NC(=O)c1ccccc1,-13,x,-7,1,0,-3,i,-17,
c1cncc(-c2nc(N3CCCCCC3)c3ccccc3n2)c1,0,1,5,-8,-8,-9,i,x,
O=C(COC(=O)/C=C/c1cccc([N+](=O)[O-])c1)NCCCN1CCCC1=O,2,-8,-2,-5,-3,2,i,10,
COc1ccc2oc3ccc(OC)cc3c(=O)c2c1,14,x,3,-1,0,-6,i,i,
Cc1ccc(C(=O)N2CCN(c3ccccc3Cl)CC2)cc1[N+](=O)[O-],-5,x,2,-4,-3,-6,i,8,
O=C(NC1CCCC1)c1cccc(Oc2ccccc2)c1,2,-14,-3,0,-7,-6,i,7,
CC1(C)OC(=O)C2=C(C[C@@H](CCOCc3ccccc3)O[C@H]2c2ccc(F)cc2)O1,x,-8,x,-1,-3,x,x,-110,
Cc1sc2ncn(CC(=O)N3CCCCC3)c(=O)c2c1C,-10,x,-6,2,4,-8,i,18,
O=C(SCC(O)C(O)CS)c1cccs1 (stereo unspecified),-8,4,22,-7,2,0,i,-5,
COc1ccccc1/C=N/NC(=O)C1=NNC(c2ccccc2)(c2ccccc2)C1,-11,x,-4,x,x,-4,i,x,
O=C(O)CC(NC(=O)CC(c1ccccc1)c1ccccc1)c1cccc([N+](=O)[O-])c1 (stereo unspecified),0,14,8,2,0,-4,i,-3,
O=C(CNC(=S)NC(=O)C1CCCCC1)c1ccccc1,-11,523*,30,-2,5,6,i,-56,
CN(CC(=O)Nc1cccc([N+](=O)[O-])c1)S(=O)(=O)c1ccccc1,-1,x,-4,5,2,-12,i,-6,
Cc1ccc(NC(=O)CN2C(=O)S/C(=C\c3cc(C)n(C)c3C)C2=O)cc1,-6,0,-1,-7,3,8,i,-147,
CCCOc1ccc(N2C(=O)CC(N3CCN(C(=O)c4ccco4)CC3)C2=O)cc1 (stereo unspecified),-6,3,4,7,5,1,i,-5,
Cc1ccccc1-n1c2nc(=O)n(C)c(=O)c-2cc2ccccc21,-7,0,66*,-3,0,83,i,-8,eIF4H inh retest=19;PABP FP inh retest=53*
CCOC(=O)C1=C(C)N=c2s/c(=C\c3ccc(OCC(=O)O)cc3)c(=O)n2C1c1ccccc1 (stereo unspecified),-20,7,10,-3,-3,22,i,-11,
Cc1ccc(CN(C)S(=O)(=O)c2c(C)noc2/C=C/N(C)C)cc1,3,-22,13,3,2,2,i,-5,
CN1C(=O)N(CC(=O)Nc2nccs2)C(=O)C12CCCCC2,14,-6,x,1,5,x,x,x,
O=C(CCn1cnnn1)N1CCCC(Nc2ccc(F)cc2)C1 (stereo unspecified),-3,-14,-10,-1,0,2,i,8,
O=C(Nc1ccc(S(=O)(=O)Nc2ncccn2)cc1)C1COc2ccccc2O1 (stereo unspecified),-1,x,-6,1,1,1,i,11,
COC(=O)CNC(=O)CSc1nc2c(sc(=S)n2-c2ccccc2)c(=O)[nH]1,4,-20,2,-2,2,1,i,-18,
COC(=O)COC(=O)c1ccccc1NC(=O)c1ccccc1,-4,x,-9,0,0,0,i,2,
COc1ccc(NS(=O)(=O)c2ccc(O)c(C(=O)OCC(=O)NC3CCCCC3)c2)cc1,x,-5,-3,-1,2,-3,i,-10,
CSc1nnc(-c2sc3cc(C(F)(F)F)cnc3c2-c2ccccc2)n1C,52,-13,-6,2,-13,1,i,x,
O=C1CCCC2=C1C1(CCCCC1)N=C(Nc1nc3ccccc3s1)N2,-1,-12,-10,0,-5,-3,i,22,
CCc1nc2c(OCCOc3ccccc3)cccn2c1N(C)C(=O)c1ccc(C)cc1,x,-11,x,1,-4,x,x,13,
CC(=O)NS(=O)(=O)c1cccnc1Nc1cccc(Cl)c1,-9,-7,-3,1,4,6,i,x,
Cc1ccc(NC(=S)N(Cc2ccc(Br)cc2)Cc2ccc(C(=O)O)cc2)cc1C,4,x,4,1,-3,5,i,2,
COC(=O)c1sc(S(=O)(=O)Nc2ccc(Br)cc2)c(C(=O)OC)c1C,9,-5,-1,2,0,-10,x,-19,
COCC(C)(C)COS(N)(=O)=O,-8,-10,1,-1,2,2,i,9,
Cc1ccccc1-n1nc(C)c2cc(C(=O)N3CCOCC3)sc21,x,-6,-8,1,0,4,i,8,

# Continuation.
SMILES,CSC inhib,UUG fidelity,PABP FP inh,MT1-MMP act inh,MT1-MMP act inh RFP,eIF4H inh,Rce1 inhib,Env fusion inh,others
CC(=O)Nc1ccc2sn(-c3ccccc3)c(=O)c2c1,x,-10,x,-1,0,x,x,-49,
COCCNC(=O)C1(C)CCCN(C(=O)CCc2ccccc2)C1 (stereo unspecified),x,-13,x,-3,3,x,x,29,
CCc1ccc(NC(=O)Cn2c(=O)n(CCC(=O)NC3CCN(Cc4ccccc4)CC3)c(=O)c3ccccc32)cc1,3,-2,-10,11,10,-4,i,0,
Cc1ccc(S(=O)(=O)N2CCN(C(=O)CCC(=O)OCC(=O)Nc3cccc(C#N)c3)CC2)cc1,-16,-10,-6,-3,1,-1,i,-21,
NS(=O)(=O)c1ccc(CCNC(=O)CSc2nc3ccsc3c(=O)n2Cc2ccccn2)cc1,x,-15,x,3,5,x,x,-12,
CC1(c2ccccc2)CC(C)(C)N2C(=O)/C(=C3\SC(=S)NC3=O)c3cccc1c32 (stereo unspecified),105*,x,-1,5,-32,43,i,8,
CC1Cc2ccccc2N1C(=O)CN1CCc2ccccc2C1 (stereo unspecified),-3,-3,9,-2,2,14,i,x,
COc1ccccc1-n1c(-c2ccccc2)c[n+]2c1CCc1ccccc1-2,22&18,-9,-1&7,-20&-10,-32&-32,-4&-7,i,41&18,
COCCN1C[C@@H](CO)O[C@@H](n2cnc3c(N(C)C)ncnc32)C1,x,-4,x,1,3,x,x,25,
CN1CCN(S(=O)(=O)c2ccc(NC(=O)Cc3ccc([N+](=O)[O-])cc3)cc2)CC1,-2,-8,0,1,0,-7,i,15,
CCCCN(CC)CCCNC(=O)c1cc2c(=O)n(C)c3ccccc3c2n1C,3,14,0,7,9,-5,i,-24,
O=C(NCCS(=O)(=O)NCc1ccccc1)c1ccc2c(c1)OCO2,x,5,x,0,-4,x,i,0,
C/C(=N/NC(=O)Cc1cccn1C)c1ccccc1,-3,-22,0,-2,0,-2,i,x,
CCN(c1ccccc1)S(=O)(=O)c1nnc(NC(=O)c2ccco2)s1,-7,-13,-4,5,5,3,i,-2,
Cc1ccc(S(=O)(=O)Nc2ccc(Cl)cc2)cc1NC(=O)Cn1cnc2c1c(=O)n(C)c(=O)n2C,-9,x,-2,7,-2,-5,i,3,
CCC(=O)N1CCN(c2ccc(OC)cc2[N+](=O)[O-])CC1,-3,4,-9,3,-4,-13,i,-6,

# Gathered by group, those above with two or more sulfur atoms
SMILES,CSC inhib,UUG fidelity,PABP FP inh,MT1-MMP act inh,MT1-MMP act inh RFP,eIF4H inh,Rce1 inhib,Env fusion inh,others
Cc1cc(SCC(=O)c2ccccc2)nc(SCC(=O)c2ccccc2)n1,1,-13,-4,2,-10,-10,i,-2,
CSc1nnc(CCCCCCCCc2nnc(SC)o2)o1,31,-11,-3,-2,-2,-7,i,15,
O=C(SCC(O)C(O)CS)c1cccs1 (stereo unspecified),-8,4,22,-7,2,0,i,-5,
COC(=O)CNC(=O)CSc1nc2c(sc(=S)n2-c2ccccc2)c(=O)[nH]1,4,-20,2,-2,2,1,i,-18,
CSc1nnc(-c2sc3cc(C(F)(F)F)cnc3c2-c2ccccc2)n1C,52,-13,-6,2,-13,1,i,x,
COC(=O)c1sc(S(=O)(=O)Nc2ccc(Br)cc2)c(C(=O)OC)c1C,9,-5,-1,2,0,-10,x,-19,
NS(=O)(=O)c1ccc(CCNC(=O)CSc2nc3ccsc3c(=O)n2Cc2ccccn2)cc1,x,-15,x,3,5,x,x,-12,
CC1(c2ccccc2)CC(C)(C)N2C(=O)/C(=C3\SC(=S)NC3=O)c3cccc1c32 (stereo unspecified),105*,x,-1,5,-32,43,i,8,
CCN(c1ccccc1)S(=O)(=O)c1nnc(NC(=O)c2ccco2)s1,-7,-13,-4,5,5,3,i,-2,
